Assay outcomes: PubChem, National Center for Advancing Translational Sciences (NCATS)
ClpP mod – qHTS Assay for Activators of ClpP; hit rate 1.9% among 340,000; Potency, µM (series often up to 57.5 µM), for the others: at the top dose activity change, negative = active; purified B. subtilis ClpP, FRET peptide cleavage, 20 min; ATP-dependent Clp protease proteolytic subunit (Bacillus subtilis (strain 168)), P80244; active = well fitted falling curve with a large enough effect; inconclusive = small, poorly fitted or top-dose-only effect; inactive = no such curve, though single readings can be large or run the other way; further: the source files actives as falling curves though it sought activators and does not explain the sign; nearly all actives have a fitted effect of over 65% in size; many hits overshoot -100%
Target sequence (P80244 whole entry, looked up): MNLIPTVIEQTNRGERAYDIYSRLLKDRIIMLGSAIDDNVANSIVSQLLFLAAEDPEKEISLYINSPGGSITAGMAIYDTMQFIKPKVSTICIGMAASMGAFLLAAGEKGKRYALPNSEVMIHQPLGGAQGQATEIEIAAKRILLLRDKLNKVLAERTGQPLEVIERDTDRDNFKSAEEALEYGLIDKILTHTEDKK
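FRET quenching reversal measured ClpP activation: 10 microg/mL B. subtilis ClpP at pH 8 with the FRET-FV decapeptide, read at 430 nm after 320 nm excitation. The 20-min minus 0-min signal was scaled between DMSO/no-enzyme wells and ADEP (5.8 microM final).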
* hit, by the source's call; ? = inconclusive. Potency means the concentration at half of the fitted maximal effect. These rows are one share of the data; rates above refer to the full screens.

SMILES | ClpP mod
Cc1ccc(CCNC(=O)C2CCN(c3nnc(-n4cccc4CNc4ccc(C)cc4)s3)CC2)cc1 | -1.5%
COc1ccc(OC)c(CCNc2ncnc3onc(-c4ccc(F)cc4)c23)c1 | -3.7%
CCCCNC(=O)C1C(c2ccc(C(F)(F)F)cc2)=Nc2ccccc2N1C(=O)c1ccc2nc(C)[nH]c2c1 (centres undefined) | 46.4%
COc1cccc(OC)c1C(=O)Nc1ccc(S(=O)(=O)Nc2nccc(C)n2)cc1 | -3.3%
COc1cccc(C(=O)Nc2ccccc2OCc2cc(=O)n3cc(C)ccc3n2)c1 | 47.3%
CCOc1ccc2nc(NC(=O)c3nc(SC(C)C)ncc3Cl)sc2c1 | -0.8%
Cc1ccccc1C(=O)n1nc(-c2ccco2)nc1NCc1cccs1 | -3.6%
CCOC(=O)c1c(NC(=O)c2cc(-c3cccc(Cl)c3)on2)sc(C(C)=O)c1C | 0.4%
CCOC(=O)c1c(C)oc2nc(C)nc(NCCCN3CCN(c4ccccc4)CC3)c12 | 0.3%
COc1cc(OC)c(NC(=O)CCn2cccn2)cc1Cl | -0.4%
O=C(Cn1c(-c2cccs2)cc2cc(F)ccc21)NCCCN1CCN(c2ccccc2F)CC1 | 31.6µM*
COc1ccc(C(=O)CN2C(=O)N(c3ccc(C(C)=O)cc3)S(=O)(=O)c3ccccc32)cc1 | -1.1%
COc1ccc(N2C(=O)CSC23C(=O)N(Cc2cccc(C(F)(F)F)c2)c2ccccc23)cc1 (centres undefined) | -1.0%
COC(=O)[C@@]12C[C@@H](CC(=O)N3CCCC3)C(=O)N(Cc3ccccc3)C1=CCC(C)(C)C2 | 0.8%
COc1ccc(OC)c(CNC(=O)c2ccc(C)c(NC(=O)c3nsc4ccccc34)c2)c1 | 0.5%
Cc1cccc(-n2ncc(C(=O)N3CCN(Cc4ccccc4)CC3)c2C2CCN(C(=O)OC(C)(C)C)CC2)c1 | 1.0%
CCOC(=O)CSc1nc2sc3c(c2c(=O)n1Cc1ccccc1)CC(C)CC3 (centres undefined) | -2.7%
CCOc1ccc(NC(=O)CSc2nc3c(c(=O)[nH]2)CCCC3)cc1 | -1.3%
COc1cc(NC(=O)c2ccc3c(Cl)c4c(nc3c2)CCC4)cc(OC)c1OC | 20.3%
CCN(C(=O)Cn1nnc2sc(-c3ccccc3)cc2c1=O)c1cccc(C)c1 | -18.4%
O=C(COc1ccccc1)NCCc1csc(-c2cccc(F)c2)n1 | -3.7%
O=C(NCc1ccccc1)c1nc(S(=O)(=O)Cc2ccc(F)cc2)ncc1Cl | -7.8%
O=C1NC[C@@H](CCCCN2C[C@H](Cc3ccccc3)N(CC3CCCCC3)C(=O)C2=O)N(CCc2ccc(O)cc2)C1=O | 1.9%
CCOC(=O)c1cccc(NC(=O)CCCn2nc(C)c3c(C)n(-c4ccccc4)nc3c2=O)c1 | 0.6%
Cc1cnc2c(C)ccc(C)c2c1/C=C/c1ccc(N(C)C)cc1 | -3.0%
CNC(=O)c1ccc(NC(=O)c2nsc3ccccc23)cc1 | -7.3%
COc1cc(-c2noc(C3CC(=O)N(c4ccc5c(c4)OCCO5)C3)n2)cc(OC)c1OC (centres undefined) | -2.4%
CC(C)(C)C1CCc2c(sc(NC(=O)c3noc4c3CCCC4)c2C#N)C1 (centres undefined) | 2.2%
Cc1cc(S(=O)(=O)Nc2cc3c(cc2N2CCOCC2)n(C)c(=O)c(=O)n3C)ccc1F | -22.7%
Cc1cc(C(F)F)n2nc(C(=O)Nc3ccc(F)c(Cl)c3)nc2n1 | 2.0%
O=Cc1ccnc2ccccc12 | -2.0%
O=S(=O)(c1ccc(Cl)cc1)c1nc(-c2ccccc2F)oc1NCc1ccccc1 | 4.9%
CCOc1ccc(C2c3[nH]c4ccccc4c3CCN2C(=O)CSc2ccccc2)cc1 (centres undefined) | -1.9%
COc1ccccc1OCC(=O)N(Cc1ccco1)Cc1ccccc1F | -0.8%
Cc1ccc(C(=O)Nc2ccc(F)cc2)cc1S(=O)(=O)N1CCOCC1 | -1.7%
Cc1nc2ccc(S(=O)(=O)CCC(=O)Nc3ccccc3C)cc2s1 | -0.1%
O=C(CSc1nccn1Cc1ccc(Cl)cc1)Nc1nc2ccccc2s1 | -3.2%
CC(C)c1nc2ccc(C(=O)NCc3ccc(F)cc3)cc2o1 | 3.2%
COc1ccc(Nc2ncc(C(=O)Nc3cccc(OC)c3)c3ccccc23)cc1 | -5.9%
CCCCCCN1CCN(C2CN(Cc3cn(CCCC(=O)OC)nn3)S(=O)(=O)C2)CC1 (centres undefined) | -2.1%
Cc1ccc(-n2c(=O)c3c4c(sc3n(Cc3cc(=O)n5cc(Cl)ccc5n3)c2=O)CCC4)cc1C | -2.4%
COc1ccc2c(c1)cc1c(=O)n(CC(=O)NC3CC3)nc(C)n12 | 4.4%
CCOc1ccc(CCNC(=O)c2cc(Nc3ccc(C)cc3C)nc3ccccc23)cc1OCC | 12.5%
COc1ccc(-n2ccn(CC(=O)NCCc3ccccc3)c(=O)c2=O)cc1OC | -3.5%
COC(=O)c1ccc(Cl)cc1NC(=O)N1CC2CCCN2c2ccccc21 (centres undefined) | -20.6%
Cc1ccc(-c2nc3ccc(C)cn3c2Cc2cccc(F)c2)cc1 | 4.5%
Cc1cc(C)cc(OCCCn2c(-c3ccc(Cl)cc3)nc3ccccc3c2=O)c1 | -2.4%
CCC(=O)N1CCc2cc(CNC(=O)c3ccccc3C)ccc21 | -1.1%
CCCNC(=O)c1ccc(Cn2c(SCC(N)=O)nc3ccccc3c2=O)cc1 | -2.8%
CCOC(=O)c1cnc2c(ccc3ccccc32)c1Nc1ccc(OC)c(OC)c1 | -3.4%
CC(=O)N(Cc1cccnc1)c1nc2ccc(F)cc2s1 | -0.7%
COc1ccc(C(=O)COC(=O)c2cc(-c3ccccc3)nc3c(C)cccc23)cc1 | ?
COc1ccc(N2CC(NC(=O)COc3ccccc3)CC2=O)cc1OC (centres undefined) | -1.1%
O=C(NCc1ccc(F)cc1)OC1CC2CC1[C@H]1CCCCN1C2=O (some centres undefined) | -2.4%
COc1ccc(NC(=O)c2cc(CN3CCCC3)on2)cc1Cl | 1.0%
Cc1ccc(S(=O)(=O)C(CNC(=O)C(=O)NCc2ccc(Cl)cc2)c2ccco2)cc1 (centres undefined) | 0.9%
Cc1ccc(NC(=O)C(CC(C)C)NS(=O)(=O)c2ccc3c(c2)oc(=O)n3C)c(C)c1 (centres undefined) | -1.6%
COc1ccc(OCC(=O)N2CCN(C(=O)c3cccc(OC)c3)CC2)cc1 | 0.0%
COc1ccc(-c2nnc3c4ccccc4c(-c4ccccc4)nn23)cc1 | -2.7%
O=C(Nc1ccc(C(=O)N2CCN(c3ccccc3)CC2)cc1)c1nsc2ccccc12 | -1.1%

(listing goes on)
SMILES | ClpP mod
Cc1nc2ncnn2c(C)c1CCC(=O)N1CCN(c2ccc(F)cc2)CC1 | -3.4%
Cc1cccc(C(=O)NCCc2nc3ccccc3n2CCC(C)C)c1 | -0.3%
COc1ccc(N2CCN(S(=O)(=O)CCNC(=O)c3ccc(C(F)(F)F)cc3)CC2)cc1 | -0.1%
CCOC(=O)c1c(NC(=O)COc2ccc(CC)cc2)sc2c1CCCC2 | -2.1%
COc1cccc(CNC(=O)C2CCCCN2S(=O)(=O)c2ccc(F)cc2)c1 (centres undefined) | 0.6%
Cc1nn(C)c2c1c(C(F)(F)F)cc(=O)n2C(C)C(=O)NCc1ccc(Cl)cc1 (centres undefined) | ?
COc1ccc(-n2c(=O)c3ccc(C(=O)NCc4ccc(C)cc4)cc3n(CC(=O)Nc3ccc(C)cc3)c2=O)cc1 | ?
O=C(N[C@@H]1CC[C@@H](CCNC(=O)C2CCOCC2)O[C@@H]1CO)c1ccncc1 | -2.2%
COc1ccccc1N1CCN(C(=O)CN2C(=O)COc3ccc(S(=O)(=O)N4CCCC4)cc32)CC1 | -1.4%
CCC1CCc2nc3sc(C(=O)Nc4ccc(C)cc4)c(N)c3cc2C1 (centres undefined) | ?
CCC1CN(C(=O)N2CCC(C(=O)NCCCc3ccccc3)CC2)c2cc(C)ccc2O1 (centres undefined) | -1.4%
Cc1ccc(-c2nc(CCNC(=O)C(=O)Nc3ccc(C)c(Cl)c3)cs2)cc1 | 0.3%
Cc1ccc2nc(N(Cc3cccnc3)C(=O)c3ccc4c(c3)OCCO4)sc2c1 | -5.6%
CCN(CC)c1nn2c(=O)c(C(=O)NCCc3cccc(C)c3)cnc2s1 | 11.2µM*
COC(=O)C[C@H]1c2cc(F)ccc2S(=O)(=O)N1C1CC1 | 0.2%
CCN(CC)S(=O)(=O)c1ccc2c(c1)N(CC(=O)Nc1ccc(F)cc1)C(=O)CO2 | -3.8%
CC(C)(C)c1ccc(C(=O)C[n+]2cccc3cc(Cl)ccc32)cc1 | -13.7%
CN1C(=O)c2ccccc2Sc2ccc(NC(=O)COc3ccccc3)cc21 | 0.1%
Cc1ccc2cccc(NC(=O)c3cccc4ccccc34)c2n1 | ?
Cc1cc(C)cc(N2C(=O)CS(=O)(=O)C23C(=O)N(Cc2ccccc2)c2ccccc23)c1 (centres undefined) | -1.4%

Part of the list above in order of heavy-atom count, rising:
SMILES | ClpP mod
COC(=O)C[C@H]1c2cc(F)ccc2S(=O)(=O)N1C1CC1 | 0.2%
CN1C(=O)c2ccccc2Sc2ccc(NC(=O)COc3ccccc3)cc21 | 0.1%
Cc1nn(C)c2c1c(C(F)(F)F)cc(=O)n2C(C)C(=O)NCc1ccc(Cl)cc1 (centres undefined) | ?
CCN(CC)S(=O)(=O)c1ccc2c(c1)N(CC(=O)Nc1ccc(F)cc1)C(=O)CO2 | -3.8%
COc1ccc(N2CCN(S(=O)(=O)CCNC(=O)c3ccc(C(F)(F)F)cc3)CC2)cc1 | -0.1%

Further entries follow.
SMILES | ClpP mod
Cc1cccc(OCC(=O)Nc2cccc(OCc3cc(=O)n4cccc(C)c4n3)c2)c1 | -6.1%
Cc1ccc(-n2nc(C(=O)N3CCN(c4ccccc4F)CC3)c3c4ccccc4n(C)c3c2=O)cc1 | -5.2%
CCCNS(=O)(=O)c1cc(-c2nn3c(C)nnc3c3ccccc23)ccc1C | -17.5%
CN1C(=O)c2ccccc2Sc2ccc(NC(=O)N3CCN(c4ccc(F)cc4)CC3)cc21 | 0.7%
COc1ccc2c(CNC3CCC(C)CC3)c(C(=O)O)n(Cc3ccc(F)cc3)c2c1 (centres undefined) | -18.9%
O=C(Nc1ccc(Cl)c(Cl)c1)N[C@@H]1CC[C@@H](CCn2cc(C3CCCCC3)nn2)O[C@@H]1CO | -1.6%
CCc1ccc(NS(=O)(=O)c2ccc3[nH]cc(C(=O)NCCCOC(C)C)c(=O)c3c2)cc1 | -4.7%
O=C(CSc1nc(-c2ccccc2F)nc2cc(=O)[nH]n12)Nc1cccc(C(F)(F)F)c1 | 0.9%
Cc1cccc(NC(=O)Cn2c(=O)n(CCc3ccccc3)c(=O)c3sc4ccccc4c32)c1 | -27.0%
O=C(c1ccc(F)cc1)c1cn(Cc2ccccc2F)c2cc3c(cc2c1=O)OCCO3 | -4.6%
CCOCCCNC(=O)c1cc(Sc2cccc(Cl)c2)nc2ccccc12 | -0.8%
COC(=O)[C@]12CCCCC=C1N(Cc1ccc(Cl)cc1Cl)C(=O)[C@H](CC(=O)N1CCSCC1)C2 | -0.3%
Cc1nnc(N2CCC(C(=O)NCCc3ccccc3)CC2)c2nn(-c3ccccc3)c(C)c12 | -17.9%
CCOC(=O)c1cc(-c2ccc(C)cc2)n(CCC(=O)Nc2ccc(OC)c(OC)c2)c1C | -2.2%
Cc1ccc(CNc2cc(C)nc3nc(-c4cccc(C)c4)nn23)cc1 | -3.3%
CCN(CC)CCCNc1oc(-c2ccc(OC)cc2)nc1C#N | -0.8%
O=C(NC1CCCC1)C(c1ccccc1)n1c(Cc2cc(F)cc(F)c2)nc2ccccc21 (centres undefined) | -1.9%
CCOC(=O)c1ccc(NC(=O)CSc2nnc(-c3ccncc3)n2-c2ccccc2)cc1 | -4.9%
Cc1cc(C)cc(NS(=O)(=O)c2c(C)nc3scc(C)n3c2=O)c1 | 0.7%
Cc1ccc(CNC(=O)c2cccc(NC(=O)N3CCSc4ncccc43)c2)cc1 | 4.5%
O=C(c1cc(-c2ccc(Br)cc2)n[nH]1)N1CCN(S(=O)(=O)c2ccc(Br)cc2)CC1 | -0.4%
CSc1ccc(CNCc2c(C(=O)O)c(C)n(Cc3ccc(F)cc3Cl)c2C)cc1 | -1.6%
COC(=O)[C@@]12C[C@@H](CC(=O)NCc3cccc4ccccc34)C(=O)N(CCc3ccc(OC)c(OC)c3)C1=CCC(C)(C)C2 | -6.1%
Cc1ccc(C(=O)Nc2cccc(-c3nc4ccccc4o3)c2)c(Cl)c1 | 75.8%
CCCc1nn2c(=O)cc(COC(=O)CNC(=O)COc3ccc(C)cc3)nc2s1 | 0.9%
O=C(Cc1ccccc1Cl)NO | -0.7%
Cn1cc(-c2cc3n(n2)CCC(=O)N3CCCC(=O)NCc2ccccc2Cl)c2ccccc21 | -22.2%
CCc1nn(-c2ccccc2)c2nc(-c3ccc(O)cc3)c3cc(OC)c(OC)cc3c12 | 4.4%
COc1cc(CN(C(=O)c2ccc(OC(C)C)cc2)c2ccccn2)cc(OC)c1OC | -2.8%

A stretch from the list above:
SMILES | ClpP mod
Cc1ccc(C(=O)Nc2cccc(-c3nc4ccccc4o3)c2)c(Cl)c1 | 75.8%
CCCc1nn2c(=O)cc(COC(=O)CNC(=O)COc3ccc(C)cc3)nc2s1 | 0.9%
O=C(Cc1ccccc1Cl)NO | -0.7%
Cn1cc(-c2cc3n(n2)CCC(=O)N3CCCC(=O)NCc2ccccc2Cl)c2ccccc21 | -22.2%
CCc1nn(-c2ccccc2)c2nc(-c3ccc(O)cc3)c3cc(OC)c(OC)cc3c12 | 4.4%
COc1cc(CN(C(=O)c2ccc(OC(C)C)cc2)c2ccccn2)cc(OC)c1OC | -2.8%
